TRPML1 ag: agonists of human TRPML1 channel; Q9GZU1; TRPML1-expressing cells, Ca2+ dye fluorescence, FDSS; host cell line not named in the record; reference of the full effect not given here; activation, % (test concentration not listed); 410,000 compounds, 0.12% hits; in the data active = activation above about 50%; inconclusive = about 30% to 50%; inactive = below about 30%; also: 0% is about no effect; the text of the record puts the active cut at 80%
Target sequence (Q9GZU1 whole entry, looked up): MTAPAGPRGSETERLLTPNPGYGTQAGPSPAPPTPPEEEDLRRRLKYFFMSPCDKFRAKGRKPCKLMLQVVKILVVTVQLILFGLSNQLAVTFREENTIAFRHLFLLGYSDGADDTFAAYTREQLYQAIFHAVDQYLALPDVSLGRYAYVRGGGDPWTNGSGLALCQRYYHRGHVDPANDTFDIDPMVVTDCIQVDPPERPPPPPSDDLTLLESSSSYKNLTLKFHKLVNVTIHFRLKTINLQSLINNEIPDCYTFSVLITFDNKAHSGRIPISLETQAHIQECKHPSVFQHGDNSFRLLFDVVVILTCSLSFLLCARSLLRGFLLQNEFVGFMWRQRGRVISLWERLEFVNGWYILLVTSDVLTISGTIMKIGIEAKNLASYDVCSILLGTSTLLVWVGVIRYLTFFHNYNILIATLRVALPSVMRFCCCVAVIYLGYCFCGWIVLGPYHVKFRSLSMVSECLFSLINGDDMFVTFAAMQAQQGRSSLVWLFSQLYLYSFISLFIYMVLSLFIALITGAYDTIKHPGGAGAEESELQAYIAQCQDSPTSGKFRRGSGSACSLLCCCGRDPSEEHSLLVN
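TRPML1-DL cells, Tet-induced overnight (~16 h, 37 degrees C), loaded 45-90 min at room temperature with Ca8 no-wash calcium dye plus quencher. FDSS fluorescence: 10 s baseline, compound pin-transfer, 110 s agonist read, then EC80 54-4 (4uM final) and 110 s antagonist read.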
Menin-MLL FL inh: displaces fluorescein MLL peptide from human menin. FP activity change, % at 61.4 µM. 290,000 tested, under 10 active. Fluorescence polarization, fluorescein-MLL peptide displacement from menin; inconclusive = falling polarisation curve, or a change in total fluorescence; inactive = total fluorescence flat and polarisation flat or rising; no compound was filed as active; the % refers to the polarisation; negative = inhibition;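 also: % of control where 0% means no effect; inhibitors lower the polarisation; unlabelled MLL peptide was the positive control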
TRPML1 inh: inhibitors of human TRPML1 channel | Q9GZU1 | TRPML1-inducible cells, Ca2+ dye fluorescence, FDSS; active compounds read low; inhibition of EC80 agonist-evoked calcium signal | activity change, negative = inhibition, % (test concentration not listed) | 390,000 compounds, 0.02% hits | AID 624415; in the data active means activity change below about -50%; inconclusive means about -30% to -50%; inactive means above about -30%;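 also: stimulus is agonist 54-4 at its EC80 concentration; % is scaled to controls: 0 for no effect and ±100 for the full control effect; compound concentration not given in the record; the text of the record puts the active cut at -80%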
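TRPML1-DL cells, Tet-induced overnight (~16 h, 37 °C) at 1,500 cells/well, were loaded with Ca8 no-wash dye plus quencher for 45-90 min at room temperature. Compounds were pinned during FDSS kinetic reading; agonist 54-4 at EC80 (4 uM final) then added.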
gsp antagonist: gsp mutant antagonism. gsp-mutant cells, cAMP HTRF, 30 min; control for the full effect not named in the record. Potency, µM (titrated, usually from 76.9 µM), without a hit: at the top dose activity change, negative = inhibition, hits mostly inhibitors. 340,000 compounds, 0.4% hits. AID 624288; active = falling curve of any shape with a large fitted effect; inconclusive = falling curve, mostly with a smaller effect; inactive = flat or rising curve; cell line not stated here;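 also: intracellular cAMP measured with PDE inhibitor Ro 20-1724 present during compound exposure; potency is read from the fitted curve at half-maximal effect; % is scaled to controls: 0 for no effect and ±100 for the full control effect; nearly all actives have a fitted effect of over 65% in size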
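HTRF cAMP measurement after 30 min RT detection following 30 min, 37C compound treatment alongside […] (added as 300 uM solution) in G418-selected cells seeded at 2000/well and grown 16–24 h.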
ClpP mod: qHTS Assay for Activators of ClpP | ATP-dependent Clp protease proteolytic subunit (Bacillus subtilis (strain 168)), P80244 | purified B. subtilis ClpP, FRET peptide cleavage, 20 min | Potency, µM (series often up to 57.5 µM), for the others: at the top dose activity change, negative = active | 340,000 compounds, 1.9% hits; active = well fitted falling curve with a large enough effect; inconclusive = small, poorly fitted or top-dose-only effect; inactive = no such curve, though single readings can be large or run the other way; also: potency is read from the fitted curve at half-maximal effect; the source files actives as falling curves though it sought activators and does not explain the sign; nearly all actives have a fitted effect of over 65% in size; many hits overshoot -100%
Target sequence (P80244 whole entry, looked up): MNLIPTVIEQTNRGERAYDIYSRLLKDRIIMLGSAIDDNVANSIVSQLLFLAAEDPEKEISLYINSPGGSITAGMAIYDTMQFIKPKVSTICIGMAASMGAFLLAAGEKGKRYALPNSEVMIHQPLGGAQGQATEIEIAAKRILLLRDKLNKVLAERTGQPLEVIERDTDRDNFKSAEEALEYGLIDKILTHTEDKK
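Buffer: 100 mM Tris/HCl pH8, 100 mM KCl, 0.05% low protease BSA, 2.5% glycerol, 0.01% Tween-20. ClpP 10 microg/mL final; 20 min RT; delta FRET normalized to ADEP and DMSO controls.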
gsp ag: agonists of gsp mutant (McCune-Albright syndrome). gsp mutant cells, cAMP HTRF, 30 min; control for the full effect not named in the record. Potency, µM (top dose mostly 76.9 µM), for inactives: at the top dose activation (cAMP increase), actives largely listed as activators. 340,000 compounds, 0.13% hits. AID 624287; active = well fitted activation curve with a large enough effect; inconclusive = small, poorly fitted or top-dose-only effect, or another doubt; inactive = no such curve, though single readings can be large or run the other way; cell line not stated here;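 also: phosphodiesterase inhibitor Ro 20-1724 added with compounds to block cAMP breakdown; potency is read from the fitted curve at half-maximal effect; nearly all actives have a fitted effect of over 60% in size; about a fifth of the inactives were tested at one dose only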
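Cells in DMEM/10% FBS with G418 were pretreated with compounds in DMSO plus […] (300 uM stock) for 30 min at 37C. cAMP was measured by HTRF (cAMP-d2 plus anti-cAMP antibody-K) after 30 min at room temperature.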
* hit, by the source's call; [ ] = another dose, or the depositor's remark. This is a random part of the collection, and some 2.1% of all compounds hit somewhere here.

Results for CC1CC(C)(C)NC(=S)N1CCC(=O)N1CCN(Cc2ccccc2)CC1 (configuration not stated) ?
TRPML1 ag: 0.2; Menin-MLL FL inh: -0.4; TRPML1 inh: -6.8; gsp antagonist: 6.9%; ClpP mod: 0.2%; gsp ag: -1.2%[15.4 µM]

How did Cc1ccc(NC(=O)COc2ccc(-n3cnnn3)cc2)cc1C do in these assays?
TRPML1 ag: -1.4; Menin-MLL FL inh: 0.2; TRPML1 inh: inconclusive; gsp antagonist: -2.2%; ClpP mod: -1.2%; gsp ag: 16.2%

What do the screens show for `CCOC(=O)c1ccc(NC(=O)c2ccc(CN3C(=O)CCn4nc(C)cc43)cc2)cc1`?
TRPML1 ag: -0.9; TRPML1 inh: -12.1; ClpP mod: inconclusive

Results for COCCn1c(-c2ccc(Cl)cc2)cnc1SCC(=O)NCc1cccs1 ?
TRPML1 ag: 2.2; Menin-MLL FL inh: -1.1; TRPML1 inh: 7.9; gsp antagonist: 6.1%; ClpP mod: 1.5%; gsp ag: 10.0%

What do the screens show for `CCn1c(=S)[nH]c2nc3c(cc2c1=O)CCCC3`?
TRPML1 ag: 0.0; Menin-MLL FL inh: 5.9; TRPML1 inh: 4.8; gsp antagonist: 16.0%; ClpP mod: -1.3%; gsp ag: 8.91µM*

How did Clc1cccc(Cl)c1Cn1nnc(-c2cccs2)n1 do in these assays?
TRPML1 ag: 0.8; Menin-MLL FL inh: -0.1; TRPML1 inh: -7.3; gsp antagonist: 4.0%; ClpP mod: 1.2%; gsp ag: -46.1%[inhibitor]

How did CCOC(=O)c1cccc(NC(=O)[C@H](CSCc2ccccc2)N2Cc3ccccc3C2=O)c1 do in these assays?
TRPML1 ag: 0.9; TRPML1 inh: 5.3; ClpP mod: -11.3%

Results for O=C(CSc1nc2ccccc2c(=O)[nH]1)c1ccc(O)c(O)c1 ?
TRPML1 ag: 0.5; Menin-MLL FL inh: 7.9; TRPML1 inh: -6.2; gsp antagonist: -16.9%; ClpP mod: -1.5%; gsp ag: 0.1%

Results for COc1ccc(C2(C)CC(=O)NC2=O)cc1 (configuration not stated) ?
TRPML1 ag: 0.3; Menin-MLL FL inh: -0.1; TRPML1 inh: 8.4; gsp antagonist: 4.7%; gsp ag: 0.4%

What do the screens show for `O=C(CNC(=S)N(Cc1ccccc1)Cc1ccccc1F)NCc1ccccc1`?
TRPML1 ag: 0.1; Menin-MLL FL inh: 1.0; TRPML1 inh: -5.8; gsp antagonist: -22.3%; ClpP mod: inconclusive; gsp ag: -1.6%[15.4 µM]

What do the screens show for `CC(C)C#Cc1ccc2c(c1)O[C@@H](CN(C)S(=O)(=O)c1cn(C)cn1)[C@@H](C)CN([C@H](C)CO)S2(=O)=O`?
TRPML1 ag: 0.1; TRPML1 inh: -15.6; ClpP mod: -3.7%; gsp ag: 8.3%

How did COc1cccc(NC(=O)c2ccc3c(c2)OCCO3)c1 do in these assays?
TRPML1 ag: -0.4; Menin-MLL FL inh: 2.5; TRPML1 inh: -5.7; gsp antagonist: -12.5%; gsp ag: 25.9%

What do the screens show for `CCOc1ccc(NC(=O)CSc2nc(NS(=O)(=O)c3ccc(C)cc3)cc(=O)[nH]2)cc1`?
TRPML1 ag: 4.7; Menin-MLL FL inh: -0.4; TRPML1 inh: 29.2; gsp antagonist: 7.8%; gsp ag: 0.7%

Results for CCCCN(CCCC)c1nc2ccccc2nc1C(C#N)C(=O)NCCCOC (configuration not stated) ?
TRPML1 ag: 0.5; Menin-MLL FL inh: inconclusive; TRPML1 inh: 9.9; gsp antagonist: 9.6%; ClpP mod: -7.1%; gsp ag: 0.7%

How did COC(=O)c1ccccc1NC(=O)Cn1c(=O)n(CCC(=O)NC2CCN(Cc3ccccc3)CC2)c(=O)c2ccccc21 do in these assays?
Menin-MLL FL inh: 4.5; gsp antagonist: 8.1%; ClpP mod: -8.3%; gsp ag: -5.2%

Results for COc1ccc(NC(=O)CN(C)C(=O)c2cccc(S(=O)(=O)N3CCN(c4ccc(F)cc4)CC3)c2)cc1 ?
TRPML1 ag: -0.1; TRPML1 inh: -10.2; gsp antagonist: -33.7%; ClpP mod: 0.2%; gsp ag: 29.2%

How did CN1CCN(S(=O)(=O)c2ccc(NC(=O)c3ccccc3F)cc2)CC1 do in these assays?
Menin-MLL FL inh: -2.6; gsp antagonist: 10.2%; ClpP mod: -1.3%; gsp ag: -16.5%

Results for O=C(c1cc(-c2cccs2)on1)N1CCOCC1 ?
TRPML1 ag: 0.0; Menin-MLL FL inh: -1.6; TRPML1 inh: 1.4; gsp antagonist: -0.1%; ClpP mod: -4.3%; gsp ag: -20.5%

What do the screens show for `CC1CN(C2CCN(S(=O)(=O)c3ccc(F)cc3)CC2)CC(C)O1` (configuration not stated)?
TRPML1 ag: 0.0; Menin-MLL FL inh: 2.5; TRPML1 inh: 9.1; gsp antagonist: -4.5%; ClpP mod: -0.3%; gsp ag: 0.0%

What do the screens show for `CC(C)NC(=O)N(C)C[C@H]1Oc2ccc(NC(=O)Cn3cnnn3)cc2C(=O)N([C@H](C)CO)C[C@@H]1C`?
TRPML1 ag: -0.6; TRPML1 inh: 12.0; gsp antagonist: 11.4%; ClpP mod: -2.3%

How did CCOc1cccc2cc(-c3nc(-c4ccccc4C)no3)c(=O)oc12 do in these assays?
TRPML1 ag: 0.5; TRPML1 inh: 19.2; ClpP mod: -1.2%

Results for O=C(CSc1n[nH]c(-c2ccccc2)n1)N1CCN(c2ccc(F)cc2)CC1 ?
TRPML1 ag: -0.2; TRPML1 inh: -12.5; ClpP mod: -2.8%

What do the screens show for `CCOc1cc(C(=O)Nc2ccc(-c3nc4cc(C)ccc4o3)cc2)cc(OCC)c1OCC`?
TRPML1 ag: 0.3; TRPML1 inh: 5.3; ClpP mod: 3.16µM*

What do the screens show for `O=C(Nc1cccc(Cl)c1)Nc1cc(S(=O)(=O)N2CCOCC2)ccc1N1CCCC1`?
TRPML1 ag: -0.7; Menin-MLL FL inh: 7.0; TRPML1 inh: 2.1; gsp antagonist: -9.1%; ClpP mod: -5.3%; gsp ag: 13.5%

How did Cc1ccc(CSC2=Nc3ccccc3C3=NC(=O)CN23)cc1 do in these assays?
TRPML1 ag: 0.2; Menin-MLL FL inh: -3.9; TRPML1 inh: 7.4; gsp antagonist: 10.4%; ClpP mod: 3.0%; gsp ag: inconclusive

What do the screens show for `O=C(Cc1sc(-c2ccccc2)nc1-c1ccccc1)Nc1ccccc1`?
TRPML1 ag: 0.8; Menin-MLL FL inh: 1.3; TRPML1 inh: 0.6; gsp antagonist: -7.9%; ClpP mod: -9.4%; gsp ag: -2.5%

What do the screens show for `CCOc1ccccc1N1CCN(Cc2ccc(Br)s2)CC1`?
TRPML1 ag: 1.4; Menin-MLL FL inh: 4.1; TRPML1 inh: -2.6; gsp antagonist: -3.7%; ClpP mod: -0.3%; gsp ag: 0.8%

How did Cc1ccc(NC(=O)COC(=O)CCc2ccc(S(=O)(=O)N3CCOCC3)cc2)cc1C do in these assays?
TRPML1 ag: -0.4; Menin-MLL FL inh: 2.3; TRPML1 inh: -5.3; gsp ag: 7.8%[15.4 µM]

How did O=C(NCc1n[nH]c(=S)n1-c1ccc(F)cc1)c1ccc(S(=O)(=O)N2CCOCC2)cc1 do in these assays?
TRPML1 ag: -0.2; Menin-MLL FL inh: 1.7; TRPML1 inh: 7.5; gsp antagonist: 31.9%[activator]; ClpP mod: -0.1%; gsp ag: 0.6%

How did COc1ccc(C2SCC(=O)N2CC23CC4CC(CC(C4)C2)C3)cc1 (configuration not stated) do in these assays?
TRPML1 ag: 1.1; Menin-MLL FL inh: 0.5; TRPML1 inh: -2.2; gsp antagonist: -8.7%; ClpP mod: 2.0%; gsp ag: -1.4%

Results for Cc1onc(-c2ccccc2)c1C(=O)Nc1ncc([N+](=O)[O-])s1 ?
TRPML1 ag: 1.1; TRPML1 inh: 67.7; gsp antagonist: inconclusive; gsp ag: -3.2%

How did Cn1c(-c2ccc(F)cc2)cnc1SCC(=O)NCc1ccco1 do in these assays?
TRPML1 ag: 0.9; Menin-MLL FL inh: 5.7; TRPML1 inh: 2.8; gsp antagonist: 3.2%; ClpP mod: 5.7%; gsp ag: -30.7%

Results for Cc1oc2c(c1C(=O)N1CCC(C)CC1)C(=O)c1ccccc1C2=O ?
TRPML1 ag: -0.6; Menin-MLL FL inh: 3.7; TRPML1 inh: 1.0; gsp antagonist: 10.4%; ClpP mod: -2.1%; gsp ag: -2.6%

How did COc1ccc(C(=O)Oc2c(Sc3ccc(Cl)cc3)c(C)nn2C(C)(C)C)cc1OC do in these assays?
TRPML1 ag: 0.2; TRPML1 inh: -5.3; ClpP mod: -2.4%

How did Cc1ccc(Sc2cc(N3CCOCC3)nc(-c3ccccc3)n2)cc1 do in these assays?
TRPML1 ag: 0.3; Menin-MLL FL inh: 4.3; TRPML1 inh: -21.1; gsp antagonist: -30.9%; ClpP mod: -13.5%; gsp ag: inconclusive

Results for O=C(NCCCN1CCOCC1)c1cccc(S(=O)(=O)N2CCc3ccccc32)c1 ?
TRPML1 ag: -0.2; TRPML1 inh: 0.5; ClpP mod: 1.0%; gsp ag: 1.7%

How did CC(C)n1c(Sc2nccn2C)nc2c1c(=O)n(C)c(=O)n2C do in these assays?
TRPML1 ag: -0.3; Menin-MLL FL inh: -1.0; TRPML1 inh: -14.1; gsp antagonist: -0.1%; ClpP mod: -1.0%; gsp ag: 1.8%

Results for Cc1ccc(-c2ccc([C@H]3[C@@H]4C=CCC[C@@]4(C)C(=O)N3Cc3ccccc3)c(F)c2)cc1 ?
TRPML1 ag: 0.2; Menin-MLL FL inh: 0.4; TRPML1 inh: 65.6; gsp antagonist: -0.7%; ClpP mod: -11.5%; gsp ag: 3.2%

Results for Cc1cccc(-n2c(C)cc(/C=N\NC(=O)c3ccco3)c2C)c1 ?
TRPML1 ag: -0.2; Menin-MLL FL inh: -0.4; TRPML1 inh: -9.0; gsp antagonist: 1.6%; ClpP mod: -2.5%; gsp ag: -8.9%

Results for CCc1cc([N+](=O)[O-])cc(CC)c1N ?
TRPML1 ag: -0.4; Menin-MLL FL inh: -0.2; TRPML1 inh: 6.7; gsp antagonist: 2.8%; ClpP mod: -6.8%; gsp ag: -31.1%[inhibitor]

Results for COc1ccc(-c2cn(CCO)c(-c3ccc(Cl)nc3)n2)cc1 ?
TRPML1 ag: -0.8; TRPML1 inh: 43.2; gsp antagonist: -4.3%; ClpP mod: -2.1%

How did O=C(Nc1ccnn1C1CCN(Cc2ccc(Cl)cc2)CC1)C1CCCC1 do in these assays?
TRPML1 ag: 0.5; TRPML1 inh: 5.0; gsp antagonist: 18.0%; ClpP mod: 1.6%; gsp ag: -30.1%
